HCMV NEC inh – inhibitors of HCMV UL50-UL53 interaction, biochemical, HTRF; HCMV UL50-UL53 nuclear egress complex (human cytomegalovirus); AID 1918969, 2023; 190,000 tested, 0.15% active; inhibition, % (test concentration not listed); normalized percent inhibition;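 active = both replicates at 50% or more, plus weaker picks with an unusually low signal ratio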;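 also: stock transfer was 100 nL into about 20 µL; 0% = negative control wells and 100% = wells with untagged competitor protein; inactives centre near -12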
GIV Gai3 FP – inhibitors of GIV peptide binding to Galpha-i3, primary screen, biochemical, fluorescence polarization, FITC-GIV GBA peptide, rat Galphai3; 210,000 tested, 0.42% active; 90 min; active compounds read low; scaled: aluminum fluoride 0%, vehicle 100%; percent of control (FP), % (test concentration not listed); Guanine nucleotide-binding protein G(i) subunit alpha-3 (Rattus norvegicus), P08753;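 active = replicate mean at 85% of control or lower, very high polarization wells dropped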;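 also: lower values mean more displacement of the GIV peptide from Galpha-i3; wells of about 15 µL received 100 nL stock; the first replicate is given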
Target sequence (P08753 whole entry, looked up): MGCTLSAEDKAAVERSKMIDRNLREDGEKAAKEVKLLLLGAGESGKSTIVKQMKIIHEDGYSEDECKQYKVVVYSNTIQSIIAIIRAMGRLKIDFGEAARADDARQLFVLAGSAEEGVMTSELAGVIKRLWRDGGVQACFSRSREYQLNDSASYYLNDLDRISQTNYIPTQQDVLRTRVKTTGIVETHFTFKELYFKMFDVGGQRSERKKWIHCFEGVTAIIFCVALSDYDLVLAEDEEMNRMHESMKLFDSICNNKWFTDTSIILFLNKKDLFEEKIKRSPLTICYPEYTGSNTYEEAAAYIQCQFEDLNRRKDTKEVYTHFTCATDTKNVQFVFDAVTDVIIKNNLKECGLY
Sa growth inh – S. aureus growth inhibition at 42 and 30 °C, primary screen, LtaS inhibitor project, RN4220, two temperatures; relative growth, % (concentration not given with the values); OD600, 20 h, 42 °C; active compounds read low; 170,000 tested, 0.53% active;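 active = growth at 42 °C up to 50% and 20 or more points under that at 30 °C, or under 10% at both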;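 also: 300 nL library stock went into each well; scaled to the means of positive and negative controls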
Sa growth inh second temp – also measured in Sa growth inh; calls as there; relative growth, %; measured here: growth at 30 °C;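 optical density after 20 h as mean of two plates; 100% = untreated growth and lower means inhibition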
The depositor's hits bear a star; / = no result given; & = joins results of further samples; ! = a repeat was not active. This is a random part of the collection; any-hit rate near 0.85%.

Field names: A = HCMV NEC inh; B = GIV Gai3 FP; C = Sa growth inh; D = Sa growth inh second temp
COC(CNC(=O)c1ccc(CS(=O)c2ccccc2)o1)OC (stereo unspecified)
  A: /	B: 99	C: 110	D: 88

CCC(=O)N1c2ccccc2CC1C(=O)NCCCN1CCN(c2ccccc2)CC1 (stereo unspecified)
  A: /	B: 97	C: 85	D: 97

O=C(C1CN(Cc2nc(-c3ccc(Cl)cc3)no2)c2ccccc2O1)N1CCOCC1 (stereo unspecified)
  A: -3	B: /	C: 108	D: 88

COc1ccccc1OCC(=O)NCC1(N2CCOCC2)CCCCC1
  A: -14	B: 108	C: 105	D: 93

CCC(=O)Nc1nc2ccccc2n1CCN1CCOCC1
  A: -4	B: 103	C: 114	D: 96

O=C(COc1ccccc1)N1CCNC1=O
  A: -14	B: /	C: 88	D: 81

CCOc1cccc(CC(=O)N2CCc3c([nH]c4ccccc34)C2c2ccc(C)cc2)c1OCC (stereo unspecified)
  A: /	B: 99	C: 77	D: 88

Cc1ccc(CSC2=NCC(C)N2)cc1 (stereo unspecified)
  A: -11	B: 96	C: 101	D: 84

Fc1ccc(Nc2ncnc3sccc23)cc1
  A: 0	B: /	C: 90	D: 91

Cc1ccc(-c2nn(-c3ccccc3)cc2CCC(=O)NC2CCCC2)cc1
  A: -4	B: 98	C: /	D: /

CCOc1ccc(OC(=O)c2sc3ncn(CC)c(=O)c3c2C)cc1
  A: /	B: 100	C: 77	D: 86

Cc1ccc(N(C)C(=O)Cn2c(=O)oc3cc(S(=O)(=O)N4CCCC4)ccc32)cc1
  A: /	B: 109	C: 112	D: 92

CC(C)(C)c1ccc(C(=O)Nc2nc3nc(-c4ccccc4)cc(=O)n3[nH]2)cc1
  A: 21	B: 103	C: 82	D: 77

CC(C(=O)NCc1cccnc1)N1Cc2ccccc2C1=O (stereo unspecified)
  A: -8	B: 105	C: 101	D: 95

Fc1ccc(CNc2ccccn2)cc1
  A: 14	B: 105	C: /	D: /

CN1CCN(c2ccc(CNS(=O)(=O)c3ccc4c(c3)CCO4)cc2)CC1
  A: 36	B: 94	C: 108	D: 89

O=c1[nH]c(=O)n(C2CCCO2)cc1F (stereo unspecified)
  A: -13&-36&-9&-34	B: 98&106	C: 6.6*!	D: 9.0*!

Cc1ccc(Cn2c(=O)n(Cc3ccc(Cl)cc3)c(=O)c3cccnc32)cc1
  A: -13	B: 105	C: 116	D: 91

CC(C)(C)c1ccc(OCC(=O)Nc2ccc(S(=O)(=O)Nc3ncccn3)cc2)cc1
  A: /	B: 97	C: 93	D: 72

CC1Cc2ccccc2N1S(=O)(=O)c1ccccc1 (stereo unspecified)
  A: -3	B: 110	C: 103	D: 105

O=c1cc(C(F)(F)F)[nH]n1-c1ccccc1
  A: 2	B: 106	C: 113	D: 76

CCOC(=O)c1c(C=O)oc2c(C)cc(OC(=O)c3ccc(C(C)(C)C)cc3)c(Br)c12
  A: 9	B: 100	C: /	D: /

COc1ccc(NC(=O)N2CCCC2C(=O)Nc2ccc(C)c(Cl)c2)cc1 (stereo unspecified)
  A: -8	B: 99	C: /	D: /

COc1ccc(-c2nc(CCNC(=O)COc3cc(C)ccc3C(C)C)cs2)cc1
  A: 20	B: 102	C: /	D: /

COCCCNC(=O)c1ccc(Cn2c(=O)c3ccccc3n(Cc3c(C)cc(C)cc3C)c2=O)cc1
  A: 2	B: 102	C: 106	D: 93

Four of these compounds, reformatted.
> COC(CNC(=O)c1ccc(CS(=O)c2ccccc2)o1)OC (stereo unspecified)
  HCMV NEC inh: /; GIV Gai3 FP: 99; Sa growth inh: 110; Sa growth inh second temp: 88
> CCC(=O)N1c2ccccc2CC1C(=O)NCCCN1CCN(c2ccccc2)CC1 (stereo unspecified)
  HCMV NEC inh: /; GIV Gai3 FP: 97; Sa growth inh: 85; Sa growth inh second temp: 97
> O=C(C1CN(Cc2nc(-c3ccc(Cl)cc3)no2)c2ccccc2O1)N1CCOCC1 (stereo unspecified)
  HCMV NEC inh: -3; GIV Gai3 FP: /; Sa growth inh: 108; Sa growth inh second temp: 88
> COc1ccccc1OCC(=O)NCC1(N2CCOCC2)CCCCC1
  HCMV NEC inh: -14; GIV Gai3 FP: 108; Sa growth inh: 105; Sa growth inh second temp: 93

Additional entries.
Field names: A = HCMV NEC inh; B = GIV Gai3 FP; C = Sa growth inh; D = Sa growth inh second temp
CSc1scc(NC(=O)c2ccc(Cl)cc2)c1S(=O)(=O)C(C)C
  A: -25	B: 106	C: 88	D: 88

CCC(=O)N1CCN(c2cc(Cl)ccc2C)CC1
  A: -9	B: 96	C: 103	D: 74

COC(=O)C1CC(=O)OC1c1ccccc1 (stereo unspecified)
  A: 0	B: 95	C: 97	D: 89

CC(C)(C)C(=O)N1CCn2c1nc1ccccc12
  A: -18	B: 98	C: 100	D: 81

Cc1ccc(C(=O)Nc2ccc(-c3nnc(-c4ccco4)o3)cc2)cc1C
  A: -11	B: 108	C: 101	D: 78

Cc1ccc(S(=O)(=O)N2CCN(C(=O)c3ccc(OCc4c(C)noc4C)cc3)CC2)cc1
  A: -8	B: /	C: 93	D: 92

CCOc1ccc(C(=O)C(C)OC(=O)c2cccc(-n3cnnn3)c2)cc1 (stereo unspecified)
  A: -13	B: /	C: 89	D: 90

CCn1c(SCC(=O)Nc2c(C)n(C)n(-c3ccccc3)c2=O)nc2c1c(=O)n(C)c(=O)n2C
  A: -29	B: 101	C: /	D: /

COc1cccc(NC(=O)CSC2=Nc3ccccc3C3=NC(CCC(=O)NCCc4ccccc4)C(=O)N23)c1 (stereo unspecified)
  A: /	B: 97	C: 82	D: 88

COC(=O)c1cc(C#N)c(SCC(=O)C(C)(C)C)nc1C(OC)OC
  A: -54	B: 101	C: 101	D: 81

CN(C)C=Nc1c(C#N)c2n(c1C(=O)c1ccc(Br)cc1)CCC2
  A: -10	B: 106	C: 102	D: 100

Nc1nc2c(s1)CCCC2
  A: 3	B: 102	C: 79	D: 58

O=C(/C=C/c1ccc2c(c1)OCO2)N1CCC(CN2C(=O)c3cccc4cccc(c34)C2=O)CC1
  A: -43	B: 103	C: /	D: /

O=C1CC(c2cc(F)cc(F)c2)c2c(nc(SCc3ccc(F)cc3)[nH]c2=O)N1 (stereo unspecified)
  A: -18	B: 102	C: /	D: /

COC(=O)C1=C(C)c2oc(N)nc2C1c1ccc(C(C)C)cc1 (stereo unspecified)
  A: -18	B: 108	C: 91	D: 105

Cc1ccc2c(c1)NC(=O)C(CC(=O)N(C)Cc1ccccc1)O2 (stereo unspecified)
  A: -2	B: 105	C: 127	D: 94

O=C(COC(=O)c1n[nH]c2ccccc12)Nc1ccc(N2CCOCC2)cc1
  A: -13	B: /	C: 104	D: 96

O=C(NCc1ccco1)c1ccc(-c2csnn2)cc1
  A: -2	B: 101	C: 114	D: 91

O=C(Cc1cccs1)NC1CC(=O)N(c2ccc(Cl)cc2)C1 (stereo unspecified)
  A: /	B: 96	C: 132	D: 88

O=C(NC1CC1)C1CCCN(C(=O)c2cc(-c3ccccn3)n[nH]2)C1 (stereo unspecified)
  A: -14	B: 99	C: /	D: /

C/C(=C\C(=O)Nc1ccc(F)cc1)Nc1ccc(F)cc1
  A: /	B: 96	C: 97	D: 88

O=C(NCCc1ccccc1)c1ccccc1NS(=O)(=O)N1CCCC1
  A: 7	B: 99	C: 112	D: 88

CCc1ccc(NC(=O)CCS(=O)(=O)c2ccc3c(c2)CCN3C(C)=O)cc1
  A: /	B: 103	C: 83	D: 81

CCCC(=O)Nc1cccc(-c2cn3c(C)csc3n2)c1
  A: /	B: 105	C: 97	D: 91

Cc1nnc2c(N3CCCC3)nc3ccc(C(=O)c4ccccc4)cc3n12
  A: -42	B: 104	C: 105	D: 86

CC(=Nc1ccc(Cl)cc1)c1ccccc1
  A: -4	B: 106	C: 118	D: 91

Oc1ccccc1CN1CCCCC1
  A: -14	B: 97	C: 84	D: 78

CS(=O)(=O)c1ccccc1C(=O)Nc1ccc(C(F)(F)F)cc1
  A: -26	B: /	C: 83	D: 86

CNS(=O)(=O)c1ccc(NC(=O)C2CC3C=CC2C3)cc1 (stereo unspecified)
  A: -6	B: 106	C: 103	D: 98

Cc1nc2nc(SCC(=O)NCCc3ccc(Cl)cc3)nn2c(C)c1Cc1ccccc1Cl
  A: /	B: 101	C: 108	D: 82

CS(=O)(=O)Nc1cc(C(=O)NCc2ccc(Br)cc2)ccc1N1CCNCC1
  A: 4	B: 106	C: /	D: /

COC(=O)c1ccccc1CS(C)(=O)=O
  A: -12	B: 92	C: 101	D: 89

C[C@H](N=C1NS(=O)(=O)c2ccccc21)C(=O)OCc1cn2ccccc2n1
  A: -11	B: /	C: 81	D: 94

Cc1cccc(C[N+](C)(C)CCC(=O)c2ccccc2)c1
  A: -7	B: /	C: 70	D: 86

CCN(C(=S)NCCN1CCOCC1)c1cccc2ccccc12
  A: 1	B: /	C: 100	D: 96

Cc1ccc(-c2n[nH]c(Cc3ccccc3)n2)cc1
  A: 4	B: 101	C: 101	D: 73

COc1cccc(C2c3c(oc4ccc(C)cc4c3=O)C(=O)N2CCCN(C)C)c1 (stereo unspecified)
  A: /	B: 101	C: 98	D: 86

N#Cc1sc2nc(-c3ccncc3)ccc2c1N
  A: -15	B: /	C: 94	D: 72

CCN(CC(=O)Nc1ccc(I)cc1)CC(=O)NC1CCS(=O)(=O)C1 (stereo unspecified)
  A: -26	B: /	C: 100	D: 82

CN(C)c1ccc(/C(N)=N/O)cc1
  A: -9	B: 103	C: 98	D: 84

Cc1ccc(C(=O)C(C)n2nc3n(C(C)C)c(=O)c4ccc(C(=O)NC(C)C)cc4n3c2=O)cc1C (stereo unspecified)
  A: -42	B: 110	C: /	D: /

Fc1ccc(OCc2nn3c(CSc4ccccc4)nnc3s2)cc1
  A: -13	B: 111	C: /	D: /

Cc1ccc(C(=O)Nc2nnc(S(=O)(=O)N(C)Cc3ccc(Cl)cc3)s2)cc1
  A: /	B: 110	C: 112	D: 97

CSc1nccc(-c2sc(SC)c(C#N)c2-c2ccccc2)n1
  A: -12	B: 110	C: 99	D: 91

O=C(O)c1ccc(S(=O)(=O)c2ccc(Cl)cc2)cc1
  A: /	B: 100	C: 112	D: 90

COc1ccc(C2C3C(=O)N(c4ccccc4)C(=O)C3ON2c2ccccc2)cc1 (stereo unspecified)
  A: 7	B: 99	C: 84	D: 115

COc1ccc(NC(=O)c2cc(-c3ccncc3)n[nH]2)c(OC)c1
  A: -11	B: 103	C: /	D: /

Oc1cccc(N=Cc2c[nH]c3ccccc23)c1
  A: -22	B: 113	C: 110	D: 86

Cc1cc(C)n(C(=O)c2cc(-c3ccc(C)o3)nc3ccccc23)n1
  A: 7	B: 100	C: 86	D: 83

COc1ccc2c(CC(=O)OC(C)C(N)=O)coc2c1 (stereo unspecified)
  A: -9	B: /	C: 95	D: 96

Further records
Field names: A = HCMV NEC inh; B = GIV Gai3 FP; C = Sa growth inh; D = Sa growth inh second temp
CC1(C)CC(=O)C2=C(C1)Nc1ccccc1NC2/C=C/c1ccccc1 (stereo unspecified)
  A: -7	B: /	C: 84	D: 84

COC(=O)c1csc2c(C(F)(F)F)cc(N3CCNCC3)nc12
  A: -6	B: 99	C: 107	D: 90

COc1ccc2ncc(S(=O)(=O)c3ccccc3)c(N3CCC(C(N)=O)CC3)c2c1
  A: /	B: 105	C: 105	D: 70

Cc1ccc(OCC(=O)Nc2ccccc2C(=O)OCc2cc(=O)n3ccsc3n2)cc1
  A: /	B: 106	C: 87	D: 96

O=C(Nc1ccc2c(c1)C(=O)OC2)c1ccno1
  A: -24	B: 98	C: 114	D: 85

CCS(=O)(=O)c1ccc(-c2ccc(NC(=O)c3ccc(OC)cc3)cc2)nn1
  A: -12	B: 102	C: /	D: /

O=C(CCC1CCCC1)NCc1ccco1
  A: 5	B: 101	C: 124	D: 77

O=C(NCc1ccccc1)c1cccnc1N1CCOCC1
  A: 11	B: 106	C: 105	D: 102

COC(=O)CNC(c1ccccc1)c1cc(Br)ccc1NC(=O)c1ccc(Cl)cc1 (stereo unspecified)
  A: -30	B: 98	C: 101	D: 88

O=C(Cn1c(SCc2ccccc2F)nc2ccncc21)NCC1CCCO1 (stereo unspecified)
  A: -2	B: 102	C: 101	D: 93

O=C(Nc1ccc(OC(F)(F)F)cc1)C1CCN(S(=O)(=O)c2ccc3[nH]c(=O)ccc3c2)CC1
  A: /	B: 96	C: 85	D: 85

Cc1ccc(S(=O)(=O)NCCSc2nnnn2-c2ccc(Cl)c(C(=O)O)c2)cc1
  A: -3	B: 105	C: 101	D: 104

Cc1cc(SCc2ncon2)c(C)cc1Cl
  A: -3	B: 101	C: 118	D: 72

Bioassay records deposited in PubChem by ICCB-Longwood Screening Facility, Harvard Medical School.
